Bfl-1 A1 inh: inhibitors of the anti-apoptotic protein A1, read as caspase activation | 0.066% of 330,000 active | MEF A1-2A-BIM cells, Caspase-Glo 3/7 luminescence, 3 h; percent of clofoctol response, vehicle zero | caspase activation, % (concentration not given with the values);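 active = over half of replicate activation scores above 10%, or exactly half above 10 with the replicate mean above 10; inconclusive = replicate mean below 10 yet half the replicates above 10; inactive = over half of replicates below 10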;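 also: wells of about 30 µL received 50 nL stock; many hits fall short of the cut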
Calb FLC: C. albicans growth modulation with fluconazole. 0.57% of 300,000 active. growth inhibition, % (concentration not given with the values). C. albicans CaCi-2 (fluconazole-resistant clinical isolate) + fluconazole, Alamar Blue growth, 48 h;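 active = most replicates above 75%; inconclusive = exactly half above 75%; inactive = most below 75%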;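 also: all wells also contain fluconazole at 8 µg/ml as a sub-toxic cotreatment; 0% = median of DMSO wells and 100% = median of geldanamycin control wells; wells of about 8 µL received 7.5 nL stock; the first replicate is given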
Beta apoptosis: beta cell apoptosis inhibition; INS-1E cytokine-induced death, ATP luminescence, 48 h; percent of positive-control rescue, neutral wells zero; protection from apoptosis, % (concentration not given with the values); 0.8% of 300,000 active;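 active = all replicates at 75% or more, or half of them and the mean; inconclusive = half reach 75% but not the mean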;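 also: 0% = cytokine-treated negative control wells and 100% = positive control rescue; higher means more ATP so stronger rescue from cytokine killing; wells of about 40 µL received 100 nL stock; the first replicate is given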
T cruzi repl: T. cruzi replication inhibition. T. cruzi beta-gal in NIH3T3, luminescence, 90 h. inhibition, % (no concentration beside the values). 1.4% of 300,000 active. AID 1885;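 active = mean inhibition across valid replicates above about 55%, limit read from the data; inconclusive = mean below that limit but half or more replicates reach it; inactive = mean below it, under half of replicates reach it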;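 also: signal also drops with host cell toxicity which is not excluded here; 0% = plate median of DMSO wells and 100% = zero luminescence signal; higher percent means less beta-gal luminescence so fewer parasites; stock transfer was 50 nL into about 50 µL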
LANA-H2B inh: blocks KSHV LANA binding to histone H2A/H2B. Q9QR71. cell-free LANA-H2A/H2B peptide, fluorescence polarization. inhibition, % (concentration not given with the values). 0.6% of 320,000 active; in the data active = inhibition mostly above about 10%, no sharp cut-off; inactive = mostly below about 6.7%;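 also: stock transfer was 7.5 nL into about 10 µL; 0% = median of vehicle wells and 100% = median of positive control wells; one replicate is shown; the record names a cut of 25% in any replicate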
UCH37 inh: blocks the human deubiquitinase UCH37. purified proteasome/UCH37, Ub-AMC cleavage fluorescence. 0.33% of 330,000 active. inhibition, % (concentration not given with the values). Q9Y5K5;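 active = mean of two replicates above 20%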;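 also: 0% = compound-free wells with enzyme and 100% = wells lacking proteasome; stock transfer was 100 nL into about 20 µL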
Target sequence (Q9Y5K5 whole entry, looked up): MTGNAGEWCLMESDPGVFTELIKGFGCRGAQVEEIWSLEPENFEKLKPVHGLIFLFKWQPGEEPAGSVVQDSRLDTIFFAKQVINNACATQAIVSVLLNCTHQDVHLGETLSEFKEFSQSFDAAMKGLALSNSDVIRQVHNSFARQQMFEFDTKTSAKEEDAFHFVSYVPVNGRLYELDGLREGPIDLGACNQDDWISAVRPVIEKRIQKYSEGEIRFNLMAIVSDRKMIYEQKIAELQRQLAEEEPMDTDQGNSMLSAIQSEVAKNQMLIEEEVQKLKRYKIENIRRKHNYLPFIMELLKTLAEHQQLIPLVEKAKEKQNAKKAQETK
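Material: human UCH37 enzyme supplied as purified proteasome complex. Measure: % inhibition of Ub-AMC cleavage fluorescence. Medium: pH 7.4 Tris-HCl (50 mM) with ovalbumin, ATP-MgCl2, DTT. Times: 30 min preincubation with enzyme, 25 min cleavage at room temperature. Detection: AMC fluorescence intensity at 355/460 nm.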
B2AR ag: human beta-2 adrenergic receptor agonism by FAP. P07550. Am2.2-beta2AR cells, FAP receptor internalization, flow cytometry; reference of the scale not given here. response, % (concentration not given with the values). 0.43% of 340,000 active. AID 504454;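 active = response above a set limit, near 3 SD of response in nonfluorescent compounds, cut at about 42% in these data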;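 also: stock transfer was 100 nL into about 11 µL; a reference agonist was the positive control; negative values mostly stem from fluorescent compounds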
Target sequence (P07550 whole entry, looked up): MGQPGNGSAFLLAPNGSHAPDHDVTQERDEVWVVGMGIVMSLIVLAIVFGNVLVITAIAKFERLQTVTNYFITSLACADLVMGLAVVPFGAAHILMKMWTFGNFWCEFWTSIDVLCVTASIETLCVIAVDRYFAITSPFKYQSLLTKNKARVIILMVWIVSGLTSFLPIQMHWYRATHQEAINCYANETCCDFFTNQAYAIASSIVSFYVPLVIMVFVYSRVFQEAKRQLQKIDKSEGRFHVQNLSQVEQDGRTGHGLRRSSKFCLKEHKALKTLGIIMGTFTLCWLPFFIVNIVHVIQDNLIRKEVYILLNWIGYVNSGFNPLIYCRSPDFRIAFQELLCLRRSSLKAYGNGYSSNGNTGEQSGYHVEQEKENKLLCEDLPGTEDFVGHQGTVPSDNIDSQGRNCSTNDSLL
RanGTP-Impb inh: inhibitors of RanGTP-importin-beta interaction, primary screen, biochemical, FRET, CFP-Ran, YFP-importin-beta, homogeneous; inhibition, % (no concentration beside the values); 1.1% of 300,000 active; cell-free CFP-Ran/YFP-importin-beta FRET ratio; AID 2216;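 active = most replicates above 15%; inconclusive = exactly half above 15%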;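 also: 0% = DMSO wells and 100% = Ran loaded with GDP instead of GTP; wells of about 40 µL received 100 nL stock; the first replicate is given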
Active calls of the source: *; i = inactive; ? = inconclusive; nt = no result given.

SMILES | Bfl-1 A1 inh | Calb FLC | Beta apoptosis | T cruzi repl | LANA-H2B inh | UCH37 inh | B2AR ag | RanGTP-Impb inh
CCOc1cc(C(=O)Nc2ccc(S(=O)(=O)Nc3cnc4ccccc4n3)cc2)cc(OCC)c1OCC | 0.6 | 20 | 6 | 16 | -3.0 | -16 | 11 | 7.9
O=C1c2ccccc2C(=O)N1CCC#Cc1ccc2cc(CCCO)oc(=O)c2c1 | -0.3 | nt | 1 | nt | 2.4 | -18 | -3 | nt
Cc1ccccc1NC(=O)CN(C)S(=O)(=O)c1cccc2cccnc12 | -0.3 | -2 | nt | -2 | 1.5 | 7.4 | -5 | -1.5
O=C(Cn1cncn1)NCc1ccccc1Br | -0.2 | -16 | -4 | -14 | 1.3 | 2.3 | 2 | -2.5
COc1cccc(N2CCN(C(=O)c3cc(-c4ccc(F)cc4)[nH]c3C)CC2)c1 | 0.4 | 4 | 0 | 6 | -5.3 | 0.6 | -5 | -4.9
O=C1NN(c2ccccc2)C(=O)/C1=C/c1ccc(-c2ccc(Cl)c(C(=O)O)c2)o1 | nt | -34 | nt | 22 | nt | 2.1 | -10 | 4.5
O=C(CS(=O)CC(=O)Nc1cccc2c1CCCC2)Nc1ccc(F)cc1 (stereo not given) | 1.3 | -10 | -2 | -16 | -1.6 | 1.5 | -2 | 4.0
CCC(=O)Nc1ccc(C(=O)COC(=O)c2nc3nccc(C)n3n2)cc1 | 0.3 | nt | -4 | nt | 0.5 | 3.4 | -3 | nt
CCOc1nc(-c2ccccc2)ccc1-c1noc(COC)n1 | 0.4 | -2 | -10 | 16 | 2.3 | -7.1 | -5 | -3.6
Cc1nn(C)c(C)c1S(=O)(=O)N1CCC(C(=O)NC2CCCc3ccccc32)CC1 (stereo not given) | 0.1 | 6 | 4 | 2 | 0.6 | 1.3 | 3 | 4.7
O=C(O)Cc1sc(NC2CCCCC2)nc1-c1ccc(Cl)cc1 | 0.5 | 5 | 5 | 26 | -2.7 | -1.4 | 5 | 1.6
COC(=O)C1C(=O)C2=C(CC1C)NC(=O)CC2c1ccccc1 (stereo not given) | 0.8 | 4 | -11 | -5 | -4.7 | 1.0 | 5 | 1.4
CCCN(CCC)Cc1cc2ccccc2c2c1COC2 | 1.0 | -2 | 3 | -3 | 2.5 | -1.0 | -6 | 3.4
CCCCC(NS(=O)(=O)c1ccc(C)cc1)C(=O)Oc1ccc2c3c(c(=O)oc2c1)CCC3 (stereo not given) | -1.8 | -7 | -6 | -13 | -7.1 | -180 | -10 | 1.6
CCOCCCNC(=O)C(c1ccc(Cl)cc1)N(Cc1cccs1)C(=O)c1ccccn1 (stereo not given) | 0.2 | -5 | 1 | -7 | 2.3 | 5.7 | 2 | -2.7
C=CCc1ccccc1OCC(CN1CCCCC1)OC(C)=O (stereo not given) | 0.8 | 0 | 0 | 8 | -4.4 | 5.3 | 3 | -1.3
COc1cc(C(O)P(=O)(OCCC(C)C)c2ccc(N(C)C)cc2)cc(OC)c1OC (stereo not given) | 0.6 | 0 | 8 | -5 | -0.8 | 2.7 | 4 | -1.9
O=S(=O)(Nc1cccc2ccccc12)c1cccc2nonc12 | 1.2 | -11 | -7 | 7 | -4.6 | 0.2 | 2 | 2.1
Cc1ccc(CCN2CC(C(=O)NCCCN3CCCCCC3)CC2=O)cc1 (stereo not given) | 1.0 | 15 | -4 | -1 | -6.2 | 0.6 | -5 | 4.9
O=C(Nc1ccccn1)c1ccc(COc2ccccc2Cl)o1 | 1.0 | -19 | -2 | -2 | -2.4 | 2.5 | -1 | 0.6
O=c1oc2cc(O)ccc2cc1-c1ccccc1 | -13 | 45 | 2 | -20 | -0.4 | i | 3 | 140*
COc1cccc2cc(C(=O)CS(=O)(=O)c3ccc(Cl)cc3)c(=O)oc12 | 0.8 | 5 | 2 | -5 | 2.7 | 2.6 | -2 | -1.5
C/C(=N\NC(=O)Cc1cccn1C)c1ccc2ccccc2c1 | 1.0 | -3 | nt | 1 | 0.2 | nt | 3 | -6.9
O=C(Nc1ccc(O)cc1)/C(=C\c1cccs1)NC(=O)c1ccccc1 | 1.3 | 0 | -3 | -11 | -3.7 | 10.0 | -5 | -1.5
O=C1NC(c2cc3c(cc2Cl)OCO3)Oc2ccccc21 (stereo not given) | -0.5 | -3 | -1 | -19 | -0.1 | 3.8 | -5 | -4.3
O=C(CSc1nnc(COc2ccccc2)n1-c1ccccc1)c1ccccc1 | 0.2 | 7 | -1 | 6 | 4.1 | 1.7 | -12 | 7.4
O=C(CCCC(=O)Nc1ccccc1Br)N/N=C/c1c(F)cccc1Cl | -0.5 | 5 | -8 | -4 | 1.4 | nt | 7 | -2.1
COc1ccc(N2CCN(C(=O)CNC(=O)c3cn(-c4ccccc4OC)c(=O)c4ccccc34)CC2)cc1 | 0.9 | 6 | -1 | 1 | -1.7 | -3.5 | 7 | 0.7
Cc1cccc(NC(=O)CN2C(=O)N/C(=C\c3ccc(-c4cccc(C(=O)O)c4)o3)C2=O)c1 | -0.5 | -4 | -2 | -7 | 113* | nt | 8 | 26*
Cn1c2c(c(=O)n(C)c1=O)CN(Cc1ccc(F)cc1)CN2 | 0.7 | 3 | -3 | 5 | 5.1 | 1.8 | -6 | -3.6
Cc1ccc(S(=O)(=O)NC(C)C(=O)NC2CCCCCC2)cc1 (stereo not given) | 0.3 | -3 | -1 | -3 | 1.8 | 1.6 | 9 | 7.3
Cc1cccc(C(=O)NCCNC(=O)c2cccc(C)c2)c1 | 0.1 | 23 | -4 | -18 | -2.6 | -0.1 | 13 | -1.6
CCCc1nc2ccccc2n1CCOc1ccccc1 | 0.0 | -10 | -1 | 9 | 1.9 | 1.4 | -6 | -1.0
O=C(Cn1nnc2ccccc2c1=O)N[C@H](C(=O)O)c1ccccc1 | -0.1 | -9 | -7 | -3 | 1.3 | 4.8 | 11 | -0.5
COc1ccc2oc(C(=O)OCC(=O)NCCN3C(=O)CSC3=O)c(C)c2c1 | -1.3 | 2 | -1 | -11 | 2.6 | -112 | 5 | -0.6
COc1ccc(CNC(=O)c2noc3c2CCCC3)cc1 | 1.0 | 13 | 1 | -9 | -0.9 | -1.6 | -5 | ?
Cc1onc(-c2c(F)cccc2Cl)c1C(=O)OCC(=O)Nc1c(C)n(C)n(-c2ccccc2)c1=O | 0.7 | 30 | -9 | -6 | -3.4 | -0.1 | 4 | 1.9
Cc1cc(=O)oc2cc(OCC(=O)Nc3nccs3)ccc12 | 0.1 | 16 | 1 | -6 | -0.2 | -4.3 | -3 | 7.4
Cc1cccc(NC(=O)c2nc[nH]c2C(=O)NCCCCCNC(=O)OC(C)(C)C)c1 | -1.5 | nt | 12 | nt | -0.8 | -1.0 | 9 | nt
O=C(COC(=O)c1ccc(Cl)nc1)Nc1c(Cl)cccc1C(F)(F)F | 1.6 | nt | -3 | -3 | -1.3 | -0.2 | -3 | 2.2

Quoted at random: four entries already listed
SMILES | Bfl-1 A1 inh | Calb FLC | Beta apoptosis | T cruzi repl | LANA-H2B inh | UCH37 inh | B2AR ag | RanGTP-Impb inh
Cc1ccc(CCN2CC(C(=O)NCCCN3CCCCCC3)CC2=O)cc1 (stereo not given) | 1.0 | 15 | -4 | -1 | -6.2 | 0.6 | -5 | 4.9
CCC(=O)Nc1ccc(C(=O)COC(=O)c2nc3nccc(C)n3n2)cc1 | 0.3 | nt | -4 | nt | 0.5 | 3.4 | -3 | nt
COc1ccc(N2CCN(C(=O)CNC(=O)c3cn(-c4ccccc4OC)c(=O)c4ccccc34)CC2)cc1 | 0.9 | 6 | -1 | 1 | -1.7 | -3.5 | 7 | 0.7
Cc1ccccc1NC(=O)CN(C)S(=O)(=O)c1cccc2cccnc12 | -0.3 | -2 | nt | -2 | 1.5 | 7.4 | -5 | -1.5

More compounds follow:
SMILES | Bfl-1 A1 inh | Calb FLC | Beta apoptosis | T cruzi repl | LANA-H2B inh | UCH37 inh | B2AR ag | RanGTP-Impb inh
CCOC(=O)c1c(NC(=O)CSc2nc3ccccc3o2)sc(C(C)=O)c1C | 0.1 | 5 | nt | -6 | -5.8 | 2.2 | -10 | -1.1
COC(=O)C1CC(O)CN1C(=O)Nc1cccc(C(F)(F)F)c1 (stereo not given) | -0.3 | 11 | -7 | -9 | 4.9 | 0.8 | 1 | 2.3
Cc1ccnc(NS(=O)(=O)c2ccc(NC(=O)C34CC5CC(CC(C5)C3)C4)cc2)n1 | -0.6 | -8 | -5 | 3 | 1.9 | 4.7 | 6 | -7.4
COc1cccc(NC(=O)CN(C)C(=O)c2cc(C)on2)c1 | -0.6 | 5 | 1 | -11 | -3.3 | 2.5 | -5 | -0.5
C=CCn1c(=O)n(CCOC)c(=O)c2sc3ccccc3c21 | -0.7 | 0 | -8 | -3 | 4.8 | -89 | 7 | -2.3
COc1ccccc1NC(=O)CSc1nnnn1C | 1.3 | -27 | -3 | 3 | -0.3 | 1.7 | 0 | -1.3
Cc1ccc(S(=O)(=O)N2CCN(C(=O)c3c(-c4ccccc4)noc3C)CC2)cc1 | 0.4 | 7 | -6 | 5 | -4.7 | -0.2 | 8 | 0.6
Cc1ccc(NC(=O)Cc2cc(C(=O)O)c3ccccc3n2)c(C)c1 | 1.1 | 19 | 14 | 0 | -6.1 | 5.8 | 7 | 2.8
O=C(O)C1CCN(c2nc(-c3ccccc3)nc3c2oc2ccccc23)CC1 | 1.1 | -2 | -3 | 44 | -1.1 | 4.9 | 1 | 4.4
CNc1ccc(/C=C/C(=O)c2cccc3ccccc23)cc1[N+](=O)[O-] | 2.8 | 0 | -13 | -5 | 2.9 | 10 | 1 | -3.1

The last two entries of the part above are carried over, then new ones follow:
SMILES | Bfl-1 A1 inh | Calb FLC | Beta apoptosis | T cruzi repl | LANA-H2B inh | UCH37 inh | B2AR ag | RanGTP-Impb inh
O=C(O)C1CCN(c2nc(-c3ccccc3)nc3c2oc2ccccc23)CC1 | 1.1 | -2 | -3 | 44 | -1.1 | 4.9 | 1 | 4.4
CNc1ccc(/C=C/C(=O)c2cccc3ccccc23)cc1[N+](=O)[O-] | 2.8 | 0 | -13 | -5 | 2.9 | 10 | 1 | -3.1
CCn1c(=O)c2c(cnn2C)c2ccccc21 | -0.3 | 7 | -17 | -9 | 0.2 | 4.9 | 1 | 5.4
O=C(COc1ccc(Cl)cc1Cl)NC(=S)N1CCCc2ccccc21 | 1.2 | -1 | 1 | 17 | -2.0 | 2.8 | 1 | 8.0
Cc1ccsc1CN(C)C(=O)c1ccc(Oc2ccccc2)cc1 | -0.6 | -1 | 7 | 12 | -3.5 | 3.0 | -16 | -0.7
CC(c1ccccn1)N(Cc1ccco1)C(=S)Nc1cccc(F)c1 (stereo not given) | 0.0 | 4 | -12 | -8 | 4.1 | 2.2 | 10 | -0.5
Cc1c(/C=N/NC(=O)C(C)(C)Oc2ccc(Cl)cc2)cnn1C | -1.3 | -11 | -4 | 5 | -4.1 | nt | -5 | 6.5
CCCCOc1ccc(N(CC(=O)NC2CCCCC2)C(=O)CCC(=O)Nc2ccccn2)cc1 | -2.1 | 9 | 2 | 11 | 2.5 | 2.4 | -9 | 1.3
CC1=N/C(=C\c2ccc([N+](=O)[O-])cc2)C(=O)N1c1ccc(Br)c(C)c1 | 0.2 | -1 | 3 | 24 | 7.7 | 1.0 | 10 | -3.5

Screening data as filed in PubChem BioAssay.
